# CBX7 inh = blocks human CBX7 binding to H3K27me3 peptide. O95931. AlphaScreen His6-CBX7 / biotin-H3K27me3 peptide binding; active compounds read low. normalised signal (fraction of DMSO) (test concentration not listed). 1.1% of 66,000 active; in the data active = normalised signal below about 0.5;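 also: 100 nL library stock added to about 20 µL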
# Target sequence (O95931 whole entry, looked up): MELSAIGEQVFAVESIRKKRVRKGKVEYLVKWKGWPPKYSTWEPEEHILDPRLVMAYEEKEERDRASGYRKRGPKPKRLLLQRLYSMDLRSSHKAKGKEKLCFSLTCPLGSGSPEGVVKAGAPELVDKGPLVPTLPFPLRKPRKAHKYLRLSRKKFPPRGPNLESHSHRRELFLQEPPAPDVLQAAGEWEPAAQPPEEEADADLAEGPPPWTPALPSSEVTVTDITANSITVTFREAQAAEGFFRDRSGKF
# CBX7 inh z-score = recorded beside CBX7 inh, whose call it bears; z-score; measured here: z-score of CBX7 signal; some inactives read as strong as hits; reference of the scale not given here;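 same signal on another scale; lower means less binding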
# * marks the source's active call; other numbers are inactive results; & = joins results of further samples. This is a subset (hit frequency here may not be typical).
# Values in the order – CBX7 inh | CBX7 inh z-score
CCC(=O)N1CCc2cc(S(=O)(=O)CCC(=O)NC(C)c3ccccc3)ccc21 (configuration not stated)
    1 | 1
CCOCCCNC(=O)C(c1ccc(C)cc1)N1CCOCC1 (configuration not stated)
    1.1 | 1.4
COc1ccc(N2Cc3cccc(C(=O)NCC(OC)OC)c3C2=O)cc1
    1 | 0.41
COc1ccc(-c2csc(NC(=O)c3ccc(Oc4ccccc4)cc3)n2)c(OC)c1
    0.83 | -3.1
CCOC(=O)N1CCN(c2c(NCc3ccccc3OC)c(=O)c2=O)CC1
    0.98 | -0.49
Cc1cc(C)c2oc(-c3cccc(NC(=O)COc4cccc(C)c4C)c3)nc2c1
    1 | -0.024
CCOc1cc2[nH]c(=O)n(CCC(=O)N3CCN(c4cccc(Cl)c4)CC3)c(=O)c2cc1OCC
    0.98 | -0.42
CCOc1ccc(NC(=O)N(CCN(C)C)C(C)c2cccnc2)cc1 (configuration not stated)
    1 | 1.9
Cc1ccc(-c2cn(-c3ccc(F)cc3)c(S(=O)(=O)CC(=O)Nc3cccc(Cl)c3)n2)cc1
    0.94 | -0.54
CCN(CCCNC(=O)CCNS(=O)(=O)c1ccc2c(c1)CCC(=O)N2)c1cccc(C)c1
    1 | 0.042
CCC(C)NC(=O)c1cc(Nc2cc(C)ccc2C)nc2ccccc12 (configuration not stated)
    1.1 | 1.8
COc1ccc(C2=NOC(C(=O)Nc3cccnc3)C2)cc1OC (configuration not stated)
    1.1 | 2
CCOc1ccc(S(=O)(=O)Nc2nc3ccccc3nc2Nc2ccccc2)cc1
    0.79 | -6.1
COc1ccc(C(=O)Nc2nnc(-c3ccc(Br)cc3)s2)cc1OC
    1.2 | 1.8
Cc1ccc(C)c(CSc2nc3ccncc3n2Cc2nc(-c3ccccc3)oc2C)c1
    1 | 0.7
O=C(NCCCc1ccccc1)c1cccc2c1C(=O)N(C1CCCCC1)C2
    0.97 | -1.2
CCc1ccc(NS(=O)(=O)c2ccc3[nH]cc(C(=O)N(C)CCC#N)c(=O)c3c2)cc1
    0.99 | -0.05
COc1cccc(C(=O)N2CC(=O)Nc3ccc(F)cc3C2c2ccccc2)c1OC (configuration not stated)
    0.97 | -0.13
CCn1cc(C(=O)NCCCOC)c2cc(OC)c(OC)cc2c1=O
    1 | 0.52
Cc1c(C(=O)Nc2cccc(C(F)(F)F)c2)sc2ncn(CC(=O)N3CCOCC3)c(=O)c12
    0.99 | -0.069

# (listing goes on)
# Values in the order – CBX7 inh | CBX7 inh z-score
Cc1ccc(-c2ccc(-c3cc(C(=O)O)c4ccccc4n3)o2)cc1Cl
    1.2 | 2.4
COc1ccc(-c2cc(C(=O)N3CCN(c4ccc(F)cc4)CC3)c3ccccc3n2)cc1
    0.89 | -3.3
Cc1cccc(-n2c(Cc3cc(=O)[nH]c(=O)[nH]3)nnc2SCC(=O)Nc2ccccc2)c1
    1 | 0.2
CCc1ccc(Nc2cc(C(=O)NCCN3CCCC3)c3ccccc3n2)cc1
    1.2 | 5.1
O=C(COc1ccccc1)Nc1c(C(=O)c2ccc(Cl)cc2)oc2ccccc12
    1.1 | 0.23
Cc1nc2ncccn2c1-c1csc(Nc2ccc(Cl)cc2)n1
    0.91&0.89 | -1.1&-0.13
CS(=O)(=O)c1ccc2nc(NC(=O)CCN3C(=O)c4ccccc4C3=O)sc2c1
    1 | -0.0055
COc1cccc(-c2nn(C)c3sc(C(=O)Nc4ccc(C)cn4)cc23)c1
    1 | 0.00053
COc1cccc(NS(=O)(=O)c2ccc3[nH]cc(C(=O)NCCc4ccccc4)c(=O)c3c2)c1
    1 | 0.025
COc1ccc(N(C)C(=O)c2cc3c(s2)-c2ccccc2OC3)cc1
    0.97 | -1.6
COc1cccc(N2CCN(C(=O)Cn3ncc4c3-c3ccccc3OC4)CC2)c1
    0.9 | -0.6
O=C(NCc1cccc(Cl)c1)c1nc2c(nnn2Cc2ccccc2)c(=O)[nH]1
    0.98 | -0.37
COc1ccc(-c2noc(-c3ccc(OC)cc3)n2)cc1
    1.1 | 0.42
CCCCSCCCNC(=O)Cn1ncc2ccsc2c1=O
    0.97 | -0.43
Cc1cc(N2CCC(C)CC2)nc2ccc(NC(=O)Cc3ccccc3Br)cc12
    1.1 | 2.8
CC(=O)Nc1ccc(-n2c(/C=C/c3ccc(OC(F)F)cc3)nc3cc(Cl)ccc3c2=O)cc1
    1.1 | 0.074
CCc1nnc(NC(=O)CN2C(=O)CC(C)(C)Sc3ccccc32)s1
    0.97 | -1
CCOC(=O)N1CCN(c2cc(=O)n(-c3ccc(OCC)cc3)c(=O)[nH]2)CC1
    1 | 0.47
CCCn1cc(C2CC(=O)N(c3ccc(C)cc3)C2=O)c2ccccc21 (configuration not stated)
    1 | 0.65
Cc1ccc(C)c(-c2csc(Nc3ccc(S(=O)(=O)Nc4cc(C)on4)cc3)n2)c1
    0.9 | -0.36

# Following part
# Values in the order – CBX7 inh | CBX7 inh z-score
CCOC(=O)c1cnc2c(C)cc(C)cc2c1Nc1ccc(S(=O)(=O)Nc2ncccn2)cc1
    0.85 | -1.7
COc1ccc(OC)c(NC(=O)c2cc(-c3ccc(Br)cc3)nc3ccccc23)c1
    1.1 | 0.21
Brc1ccc(-c2noc(CCCc3ccccc3)n2)cc1
    1.2 | 6.1
O=C(NCc1cccnc1)C1CCN(S(=O)(=O)c2ccccc2)CC1
    1 | 0.065
CC(C)CC(=O)Nc1cccc(-c2nc3ncccc3o2)c1
    1.1 | 1.1
CCC(C)NC(=O)c1cn(CC)c(=O)c2cc(OC)c(OC)cc12 (configuration not stated)
    1.2 | 1.7
Cc1nc(-c2cccc(NS(=O)(=O)c3cccc(Br)c3)c2)cs1
    0.92&0.81 | -1.2&-3.3
Cc1ccc(/C=C/c2nc(-c3c(F)cccc3F)no2)cc1
    1.6 | 0.65
CCc1cccc(NS(=O)(=O)c2ccc3c(c2)n(C)c(=O)c(=O)n3C)c1
    1.1 | 0.51
Cc1cc(Nc2cccc(Cl)c2)nc(-c2ccccc2O)n1
    1.1 | 2.2
Cc1c(C(=O)NCCCN2CCN(C)CC2)sc2ncn(CC(=O)N3CCCCC3C)c(=O)c12 (configuration not stated)
    1 | 0.35
O=C(c1ccc2c(c1)N(Cc1cccc(Cl)c1)C(=O)c1ccccc1S2)N1CCOCC1
    1.1 | 1.2
CCCCN(CCCC)S(=O)(=O)c1ccc(C(=O)Nc2nnc(CC)o2)cc1
    0.051* | -10*
COc1ccc(N2CCN(C(=O)c3cn(C4CCCCC4)c(=O)c4c3c3ccccc3n4C)CC2)cc1
    0.72 | -6.8
Cc1nc2c(C(=O)NCc3ccc4c(c3)OCO4)cnn2c(C)c1Cc1ccc(F)cc1Cl
    0.97 | -0.37
COc1ccc(Cl)cc1NC(=O)c1oc2ccc(S(=O)(=O)N3CCCCC3)cc2c1C
    1.1 | 2.8
O=C1CC(c2ccccc2)Sc2ccccc2N1Cc1ccccc1 (configuration not stated)
    1.1 | 1.1
CCn1c(C(=O)N2CCCC(C(=O)NCCc3c[nH]c4ccccc34)C2)cc2sccc21 (configuration not stated)
    0.67 | -9.5
CC(=O)NC(CCS(C)(=O)=O)C(=O)Nc1ccccc1C (configuration not stated)
    1.1 | 2.9
COc1ccc(OC)c2[nH]c(=O)c(CCNC(=O)c3c(-c4ccccc4Cl)noc3C)cc12
    1.2 | 2.7

# Reprinted at random: 5 entries already listed
# Values in the order – CBX7 inh | CBX7 inh z-score
CC(C)CC(=O)Nc1cccc(-c2nc3ncccc3o2)c1
    1.1 | 1.1
Cc1ccc(/C=C/c2nc(-c3c(F)cccc3F)no2)cc1
    1.6 | 0.65
O=C(NCc1cccnc1)C1CCN(S(=O)(=O)c2ccccc2)CC1
    1 | 0.065
COc1ccc(OC)c2[nH]c(=O)c(CCNC(=O)c3c(-c4ccccc4Cl)noc3C)cc12
    1.2 | 2.7
Cc1nc2c(C(=O)NCc3ccc4c(c3)OCO4)cnn2c(C)c1Cc1ccc(F)cc1Cl
    0.97 | -0.37

# (next part)
# Values in the order – CBX7 inh | CBX7 inh z-score
CCOC(=O)c1c(NC(=O)c2cccc(Cl)c2)sc(C(=O)NC2CCCC2)c1C
    1 | 0.039
COCCCNC(=O)C1CCCN(S(=O)(=O)c2c(C)noc2/C=C/c2cccs2)C1 (configuration not stated)
    1 | 0.28
Cc1ccccc1NC(=O)c1sc(-c2ccccc2)nc1C
    1.1 | 2.3
CCC(C)NC(=O)C1c2ccccc2C(=O)N1Cc1ccccc1 (configuration not stated)
    0.99 | -0.18
CCN1CCN(C(=O)Cn2cc(S(=O)(=O)N3CCC(C)CC3)c3ccccc3c2=O)CC1
    1.1 | 1.6
COc1ccc(-n2cnc3cc(C(=O)NC4CCCC4)ccc32)cc1
    0.91 | -1.1
CC(C)(C)c1ccc(C(=O)Nc2c3c(nn2-c2ccc(F)cc2)CSC3)cc1
    1.1 | 1.3
CCOc1ccccc1NC(=O)CC1C(=O)Nc2ccccc2N1S(=O)(=O)c1ccc(C)cc1 (configuration not stated)
    1.1 | 1.2
Cc1cccc(Cn2c(=O)n(CCCC(=O)NCc3ccccc3)c(=O)c3sccc32)c1
    1.1 | 1.6
Cc1c(C(=O)NCC(C)C)sc2nc(-c3ccc(F)cc3)cn12
    0.98 | -0.38
O=C(NCCN1CCOCC1)c1ccc2c(c1)ncn2C1CCCCC1
    0.99 | -0.38
CCc1nc2ccc(C(=O)NC(C)c3ccccc3)cc2nc1CC (configuration not stated)
    0.96 | -0.55
CCOc1ccc(-c2cc(C)n3nc(C(=O)Nc4ccc(C(C)=O)cc4)cc3n2)cc1
    1.1 | 1.6
CC(C)(C)c1ccc(C(=O)Nc2nnc(Cc3ccccc3F)s2)cc1
    1 | 0.18
CCN(CCCNC(=O)C1CCC(=O)N1C(C)C)c1cccc(C)c1 (configuration not stated)
    1 | 0.099
O=C(CN1C(=O)COc2ccc(Cl)cc21)NCCC1=CCCCC1
    0.81 | -2.3
CN(CC(=O)NCc1cccnc1)S(=O)(=O)c1ccc2c(c1)n(C)c(=O)c(=O)n2C
    1.1 | 0.94
O=C(O)CCCC(=O)N1CCc2cc(S(=O)(=O)NC3CCCc4ccccc43)ccc21 (configuration not stated)
    1.2 | 1.7
COc1ccc2cc(CCNC(=O)c3ccccc3C(F)(F)F)c(=O)[nH]c2c1
    0.97 | -0.86
CCOc1ccc2c(c1)c(=O)c(S(=O)(=O)c1ccccc1)cn2Cc1ccc(C)cc1
    0.8 | -3.8

# (next part)
# Values in the order – CBX7 inh | CBX7 inh z-score
CC(C)N(Cc1ccccc1)C(=O)c1c[nH]c2ccc(S(=O)(=O)Nc3ccccc3F)cc2c1=O
    0.77 | -4.3
c1ccc(-c2nnc3ccc(NC4CCCC4)nn23)cc1
    1.1 | 2.6
Cc1ccc(Nc2ncc(C(=O)NCCCN3CCOCC3)c3ccccc23)cc1Cl
    1.2 | 5.3
Cc1ccc(CNC(=O)Cn2nc(-c3ccccc3)ccc2=O)cc1
    1 | 1.2
Cc1ccccc1NC(=O)CN(c1ccc(C(C)C)cc1)S(=O)(=O)c1c(C)nn(C)c1C
    1.1 | 2.4
COc1cccc(C2=NOC(C(=O)Nc3ccc4c(c3)OCO4)C2)c1OC (configuration not stated)
    1 | 0.3
CCc1ccc(-c2nc(C(=O)NC(C)CC)c(C)o2)cc1 (configuration not stated)
    0.94 | -0.38
CCCCCc1c(O)nc(SCC(=O)O)[nH]c1=O
    1 | 1.1
Clc1ccc(-c2csc(Nc3cccc4ccccc34)n2)cc1Cl
    0.82 | -3.4
Cc1ncc(CO)c2cc(C(=O)Nc3cc(F)ccc3F)c(=O)oc12
    0.99 | -0.28
CCCN(C(=O)c1cc2c(s1)-c1ccccc1OC2)c1ccccc1C
    1.4 | 21
CCC(C)NC(=O)CN(C)S(=O)(=O)c1ccc2c(c1)n(C)c(=O)c(=O)n2C (configuration not stated)
    1.1 | 1.1
CC(=O)Nc1cccc(Nc2nc3ccccc3nc2NS(=O)(=O)c2ccc(Cl)cc2)c1
    1.4 | 0.54
Cc1c(C(=O)N(C)Cc2ccccc2)sc2ncn(CC(=O)N3CC(C)CC(C)C3)c(=O)c12 (configuration not stated)
    1 | 1.1
COc1ccc(-c2[nH]c(-c3cccc(OC)c3)nc2SCC(=O)Nc2ccc3c(c2)OCO3)cc1
    0.75 | -12
CCc1cccc(C)c1Nc1c(-c2ccc(OC)cc2)nc2cnccn12
    1.3 | 10
CCCN(CCC)S(=O)(=O)c1ccc(C(=O)Nc2nc(-c3ccc(F)cc3)cs2)cc1
    0.97 | -0.6
CN(c1ccc(Cl)cc1)S(=O)(=O)c1ccc2[nH]cc(C(=O)NC3CCCCCC3)c(=O)c2c1
    0.94 | -0.61
Cc1ccnc(N2C(=O)c3ccccc3C2Nc2ccc(F)c(Cl)c2)c1 (configuration not stated)
    0.9 | -0.22
COc1ccc(CCCc2nnc(SCC(=O)Nc3cc(C)ccc3C)o2)cc1C
    0.9 | -1.1

# The list goes on.
# Values in the order – CBX7 inh | CBX7 inh z-score
COc1ccc(-c2nc3cc(C)ccn3c2NC(=O)c2ccc(Br)cc2)cc1
    0.86 | -0.24
O=C(O)c1ccc2c(c1)N(Cc1ccc(F)cc1)C(=O)c1ccccc1S2(=O)=O
    1.3 | 3
Oc1ccc(-c2nc(-c3ccc(-c4ccccc4)cc3)c(-c3ccc(-c4ccccc4)cc3)[nH]2)cc1
    0.61 | -1.5
COc1ccc(Nc2nc(C)nc3sc(C)c(C)c23)cc1OC
    0.7 | -0.4
CCOC(=O)c1ccc2nc(NC(=O)C3CCCCC3)sc2c1
    1.1 | 1.3
CSc1nc2ccc(NC(=O)CSc3nc4ccccc4[nH]3)cc2s1
    1 | 0.6
CCCNC(=O)CN(c1ccc(C(C)C)cc1)S(=O)(=O)c1c(C)nn(C)c1C
    1.1 | 1.4

# Compounds shown so far that contain a COOH group:
# Values in the order – CBX7 inh | CBX7 inh z-score
Cc1ccc(-c2ccc(-c3cc(C(=O)O)c4ccccc4n3)o2)cc1Cl
    1.2 | 2.4
O=C(O)CCCC(=O)N1CCc2cc(S(=O)(=O)NC3CCCc4ccccc43)ccc21 (configuration not stated)
    1.2 | 1.7
CCCCCc1c(O)nc(SCC(=O)O)[nH]c1=O
    1 | 1.1
O=C(O)c1ccc2c(c1)N(Cc1ccc(F)cc1)C(=O)c1ccccc1S2(=O)=O
    1.3 | 3
